Screening data from PubChem BioAssay.
Arbovirus inh: antivirals against arbovirus infection, primary screen, cell-based, full library, 10K replicate subset; actives 0.37% (n = 200,000); arbovirus infection cell-based antiviral screen; inhibition, % at 10 µM;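 active = inhibition from about 30%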;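 also: bluetongue infection of BSR cells; cell survival read as ATP light after 72 h; 0% = infected wells without compound and 100% = uninfected wells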
Mtb H37Rv: M. tuberculosis H37Rv growth inhibitors, H37Rv strain (AID 1626). M. tuberculosis H37Rv growth inhibition; higher % means a stronger effect. inhibition, % at 10 µM; hits with a dose series show IC50 in µM. actives 0.95% (n = 220,000);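 active = confirmed in a dose series; inconclusive = inhibition above 80% but not taken into the dose series; inactive = below 80% or under 30% at every dose of the series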;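 also: bacteria incubated seven days before Alamar blue readout; 0% = bacteria only wells and 100% = bacteria with antibiotic wells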
Mtb betalactam: beta-lactam sensitization of Mtb H37Rv, H37Rv | inhibition, % at 25 µM | AID 434955, 2010 | actives 0.27% (n = 330,000) | M. tuberculosis H37Rv growth with meropenem, percent inhibition; hits of this screen are not shown here;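 active = about 74% or more and at least 40 points above the plate without the antibiotic, then above 30% in a dose series; inconclusive = first-round hits that could not be retested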;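 also: growth measured after seven days incubation then overnight dye step; 0% = bacteria only wells and 100% = bacteria with antibiotic; twin plates without the antibiotic show which effects depend on it; some results filed as inactive read as strong as hits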
RecA splice inh: Mtb RecA intein splicing inhibitors, primary screen, biochemical, fluorescence, HTS | cell-free RecA intein splicing | inhibition, %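 (about 9 µM by stock and volumes)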 | actives 0.75% (n = 290,000) | AID 2221, 2009; in the data active = inhibition above about 30%; inconclusive = no clear call, values can overlap the other calls;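 also: 0% = vehicle wells and 100% = reference inhibitor control wells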
Target sequence (P9WHJ3 whole entry, looked up, canonical isoform): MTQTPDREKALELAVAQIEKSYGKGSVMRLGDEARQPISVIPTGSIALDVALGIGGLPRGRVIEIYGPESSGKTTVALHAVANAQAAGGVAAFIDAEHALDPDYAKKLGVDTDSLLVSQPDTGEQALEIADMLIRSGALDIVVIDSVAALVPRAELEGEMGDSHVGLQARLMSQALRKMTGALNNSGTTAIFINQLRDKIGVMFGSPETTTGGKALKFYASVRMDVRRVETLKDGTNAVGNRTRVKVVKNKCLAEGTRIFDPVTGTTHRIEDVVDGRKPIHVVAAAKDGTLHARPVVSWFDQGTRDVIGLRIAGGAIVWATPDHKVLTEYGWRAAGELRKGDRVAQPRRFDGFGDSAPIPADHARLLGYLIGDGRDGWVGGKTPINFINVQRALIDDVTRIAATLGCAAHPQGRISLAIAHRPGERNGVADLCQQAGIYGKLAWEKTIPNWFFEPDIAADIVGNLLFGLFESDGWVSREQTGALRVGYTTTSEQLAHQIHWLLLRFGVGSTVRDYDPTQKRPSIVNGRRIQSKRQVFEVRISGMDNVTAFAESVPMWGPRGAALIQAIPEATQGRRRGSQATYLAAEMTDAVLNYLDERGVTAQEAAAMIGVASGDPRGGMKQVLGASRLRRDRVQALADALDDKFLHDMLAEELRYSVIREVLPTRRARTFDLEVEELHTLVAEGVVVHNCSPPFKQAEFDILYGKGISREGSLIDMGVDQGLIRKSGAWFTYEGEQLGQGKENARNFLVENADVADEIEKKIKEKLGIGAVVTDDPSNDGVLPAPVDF
YopH inh: YopH tyrosine phosphatase inhibitors, primary screen, biochemical, fluorescence Ex485/Em525. inhibition, %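 (about 10 µM by stock and volumes)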. actives 0.16% (n = 140,000). AID 898, 2007;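 active = inhibition of 50% or more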;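 also: controls were vehicle for no effect and minimum signal wells for full effect; inactives centre near -20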
Arbovirus inh repeat: also measured in Arbovirus inh; calls as there; inhibition, %; measured here: 10K subset replicate screen; many hits read low in the repeat;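 first of two repeat runs on a subset; 0% = infected and 100% = uninfected wells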
Numbers without * were called inactive; i = inactive; ? = inconclusive; / = no result given. The list is partial (hit frequency here may not be typical).

SMILES	Arbovirus inh	Mtb H37Rv	Mtb betalactam	RecA splice inh	YopH inh	others
Cc1ccc2oc(=O)n(Cc3ccccc3)c2c1	/	/	-4	0.5	/
CCOC(=O)Cc1nnc(NC(=O)CSc2nnc3c(n2)[nH]c2ccccc23)s1	5	-18%	0	-0.6	/
O=C(Cc1ccc(Cl)c(Cl)c1)Nc1cccc(S(=O)(=O)N2CCOCC2)c1	-13	2%	-10	7.1	/
COc1ccc(S(=O)(=O)Nc2c(C)n(C)n(-c3ccccc3)c2=O)cc1	8	0%	-1	1.2	-19
CCOc1ccc(N(CC(=O)NCc2ccc(F)cc2)C(=O)CCC(=O)Nc2nccs2)cc1	/	/	74	-0.3	/
Cc1ccc(NC(=S)NC(=O)c2ccc(-c3ccccc3)cc2)c(C)c1	20	13%	7	2.4	-35
CCCCN(CC)C(=O)Cn1cnc2ccc(S(=O)(=O)N3CCC(C)CC3)cc2c1=O	5	4%	-9	3.1	-1
Cc1ccccc1NC(=O)CSCc1nc(N)nc(Nc2ccccc2C)n1	9	-1%	3	1.0	-38
N#CC1=C(N)Oc2cc(O)c(Cl)cc2C1c1ccccc1F (stereo not drawn)	/	/	-1	i	/
CCOC(=O)N1CCN(C(=O)Cn2nc(C)n3nc(-c4ccc(CC)cc4)cc3c2=O)CC1	/	/	26	-1.9	/
COc1cc(CNCCc2ccccc2)cc(Br)c1OCC(=O)Nc1ccccc1C	-29	79%	98	5.7	/
CC(/C=C1\SC(=S)N(NC(=O)c2ccncc2)C1=O)=C\c1ccccc1	/	-3%	-13	1.4	/

In the list so far, these have fluorine:
SMILES	Arbovirus inh	Mtb H37Rv	Mtb betalactam	RecA splice inh	YopH inh	others
CCOc1ccc(N(CC(=O)NCc2ccc(F)cc2)C(=O)CCC(=O)Nc2nccs2)cc1	/	/	74	-0.3	/
N#CC1=C(N)Oc2cc(O)c(Cl)cc2C1c1ccccc1F (stereo not drawn)	/	/	-1	i	/

The results go on:
SMILES	Arbovirus inh	Mtb H37Rv	Mtb betalactam	RecA splice inh	YopH inh	others
COc1ccc(C)cc1-n1c(SCC(=O)NCC2CCCO2)nc2c([nH]c3ccccc32)c1=O (stereo not drawn)	/	/	?	9.2	/
O=C(CC1SC(=Nc2ccc(OC(F)F)cc2)N(CCC2=CCCCC2)C1=O)Nc1ccccc1F (stereo not drawn)	-4	4%	-6	-0.8	-17
Cc1sc(NC(=O)C2C3CCC(O3)C2C(=O)O)c(C(=O)OC(C)C)c1-c1ccc(Cl)cc1 (stereo not drawn)	-29	-3%	-3	0.9	-4
O=C1CC(C(=O)Nc2ccccc2C(=O)O)C(c2ccccc2)O1 (stereo not drawn)	-4	-6%	-2	-2.6	-43
Cn1c(=NC(=O)CCl)sc2ccccc21	-34	77%	94	13	-7
c1ccc2c(c1)nc(-c1ccncc1)n2CCNc1nc(CN2CCCCC2)cs1	/	/	-6	0.0	/
COc1ccccc1CNC(=O)CCc1nnc2ccc(NCCCN3CCCC3=O)nn12	/	/	0	-2.5	/
N#CCC(=O)N/N=C/c1c(-c2ccccc2)n(-c2ccccc2)c2ccccc12	/	/	10	-0.4	/
CC(=O)Sc1nc(-c2ccccc2)[nH]c1S(=O)(=O)c1ccc(C)cc1	-8	3%	7	-5.5	/
CCOC(=O)CCc1c(C)nc(SCCN2CCCC2)c(C#N)c1C	-5	-7%	15	/	-4
CCOC(=O)N/N=C1\CCc2ccccc21	5	-8%	3	-1.2	-31
Cc1nc(SC(C(N)=O)c2ccccc2)c(C#N)c(C)c1C (stereo not drawn)	/	2%	-11	4.9	/
CCN(CC(=O)Nc1ccc(N2CCOCC2)cc1)Cc1nc2ccccc2c(=O)[nH]1	7	-5%	-6	-3.1	-71
O=C(c1ccc(NC(=O)C2(c3ccccc3)CCOCC2)cc1)N1CCOCC1	14	7%	66	/	-31
COc1cccc(OCC(=O)Nc2c3c(nn2-c2ccccc2)CS(=O)(=O)C3)c1	/	/	?	-3.5	/
Cc1ccc(-c2nn(C(C)(C)C)c3ncnc(NS(=O)(=O)c4ccc([N+](=O)[O-])cc4)c23)cc1	-1	3%	36	/	/
NC(=O)c1ccc(N=Cc2ccc([N+](=O)[O-])s2)cc1	-44	30%	100	/	92*
CSCCC(NC(N)=O)C(=O)N(C)CC(=O)Nc1ccc(C)cc1 (stereo not drawn)	9	-9%	0	-2.7	-18
CCOc1ccc(N2C(=O)CC(SCC(=O)O)C2=O)cc1 (stereo not drawn)	4	-8%	4	-3.6	/
Cc1ccccc1OCCn1cnc2cc([N+](=O)[O-])ccc2c1=O	2	8%	1	0.2	/
CCOC(=O)c1cnc2ccc(OCC)cc2c1N1CCN(c2ccccc2)CC1	-4	8%	85	16	3
Cc1cc(Br)cc(Cl)c1OC(=O)c1cnccn1	/	/	1	8.3	/
CCN(CC)C(=O)c1ccccc1NS(C)(=O)=O	3	-4%	3	-2.4	/
O=C(CN1CCCC1)Nc1ccccc1Sc1ccc(Cl)cc1	-13	6%	6	5.4	/

Structural class, those above with a COOH group (3)
SMILES	Arbovirus inh	Mtb H37Rv	Mtb betalactam	RecA splice inh	YopH inh	others
Cc1sc(NC(=O)C2C3CCC(O3)C2C(=O)O)c(C(=O)OC(C)C)c1-c1ccc(Cl)cc1 (stereo not drawn)	-29	-3%	-3	0.9	-4
O=C1CC(C(=O)Nc2ccccc2C(=O)O)C(c2ccccc2)O1 (stereo not drawn)	-4	-6%	-2	-2.6	-43
CCOc1ccc(N2C(=O)CC(SCC(=O)O)C2=O)cc1 (stereo not drawn)	4	-8%	4	-3.6	/

Next structures follow:
SMILES	Arbovirus inh	Mtb H37Rv	Mtb betalactam	RecA splice inh	YopH inh	others
COc1ccc(/C=N/N=C2/C(=O)Nc3ccccc32)cc1O	1	5%	-7	/	/
CCC(CC)C(=O)c1c[nH]c(C(=O)NCc2cccs2)c1	-8	6%	-3	4.0	/
O=C1CCc2cc(S(=O)(=O)N3CCN(c4ccccc4F)CC3)ccc2N1	19	-3%	6	0.9	-10
O=C1c2oc3ccc(Cl)cc3c(=O)c2C(c2ccco2)N1CCN1CCOCC1 (stereo not drawn)	5	/	0	0.8	-15	Arbovirus inh repeat=-4
C=CCn1c(CCCNC(=O)CCC)nc2ccccc21	2	-18%	-3	1.2	-21	Arbovirus inh repeat=5
COc1ccc(C2CC(=O)C(C=NCCN3CCOCC3)=C(O)C2)cc1 (stereo not drawn)	6	0%	-1	-0.3	-4
O=C(NCCc1c[nH]c2ccccc12)C1CCC(=O)N(CCc2cccc(F)c2)C1 (stereo not drawn)	/	/	-7	0.2	/
O=C(/C=C/c1cn(-c2ccccc2)nc1-c1cccs1)NCCN1CCOCC1	/	13%	1	3.9	/
CC1(O)CC(c2ccc(Cl)cc2)=NN1C(=O)c1ccc(Cl)cc1 (stereo not drawn)	/	/	70	2.3	/
CCN(CC(=O)NCc1cccs1)C(=O)c1cccc(S(=O)(=O)Nc2ccc(C)cc2)c1	/	/	-6	0.1	/
COc1ccc(Cl)cc1NC(=O)N1CCN(S(C)(=O)=O)CC1	4	-4%	-3	2.1	-27
CCOc1ccc(OCCOCCn2ccnc2)cc1	9	-8%	0	1.7	5
COc1cccc(NC(=O)C(Cc2ccccc2)n2cccc2)c1 (stereo not drawn)	/	-1%	-6	-0.1	/
N=C1SC(c2ccccc2)C(=O)N1c1ncc(Cc2ccccc2Cl)s1 (stereo not drawn)	-30	71µM*	6	0.1	-25
c1ccc2c(c1)nc1n2CC2CON(C3CCCCC3)C12 (stereo not drawn)	/	-6%	-8	1.1	/
CC1(C)C2CCC1(C)C(NC(=O)CCN1CCCCC1)C2 (stereo not drawn)	6	-2%	12	2.9	-21
O=C1CSC(=O)N1CCOCCN1C(=O)CSC1=O	0	-4%	-4	2.0	-34
COC(=O)COc1ccc(/C=C2/NC(=O)N(CC(=O)OC)C2=O)cc1	3	2%	11	2.3	/
O=C(Nc1ccc2c(c1)OCCO2)c1ccccc1F	-3	7%	-3	-0.6	-39
N=c1c(S(=O)(=O)c2ccccc2)cc2c(=O)n3ccccc3nc2n1CCCN1CCOCC1	/	/	2	-98	/
CCc1cccc(NC(=O)Cn2cc3c(n2)CCCC3)c1	-5	4%	?	2.2	-22	Arbovirus inh repeat=-3
CC(=O)Nc1ccc(NC(=O)CCn2c(=O)oc3ccccc32)cc1	/	/	3	-0.4	/
CC(C)CN1CCC(=O)N([C@H](CN=[N+]=[N-])Cc2ccccc2)CC1	/	/	-9	4.2	/
O=C(c1cccc(S(=O)(=O)N2CCOCC2)c1)N1CCN(Cc2ccc3c(c2)OCO3)CC1	3	-11%	-6	-0.7	/

The list goes on, overlapping the part above by 3 compounds.
SMILES	Arbovirus inh	Mtb H37Rv	Mtb betalactam	RecA splice inh	YopH inh	others
CC(=O)Nc1ccc(NC(=O)CCn2c(=O)oc3ccccc32)cc1	/	/	3	-0.4	/
CC(C)CN1CCC(=O)N([C@H](CN=[N+]=[N-])Cc2ccccc2)CC1	/	/	-9	4.2	/
O=C(c1cccc(S(=O)(=O)N2CCOCC2)c1)N1CCN(Cc2ccc3c(c2)OCO3)CC1	3	-11%	-6	-0.7	/
N#CCn1cnc2sc(-c3ccccc3)cc2c1=O	-3	11%	1	7.6	/
Cc1oc2cc3oc(=O)c(CCC(=O)NCCN4CCOCC4)c(C)c3cc2c1C	/	/	-5	-1.6	/
Nc1nc(SCC(=O)NCc2ccccc2Cl)[nH]c(=O)c1NC(=O)c1ccccc1F	2	-1%	3	0.0	-19
CCc1nc(Nc2ccc3c(c2)OCO3)c2oc3ccccc3c2n1	3	/	11	5.0	10
CN(CC(=O)NCc1ccc2c(c1)OCO2)S(=O)(=O)c1ccc(F)cc1	/	/	-5	-3.7	/
CCS(=O)(=O)c1nc(S(=O)(=O)c2ccc(C)cc2)c(N2CCC3(CC2)OCCO3)s1	/	/	1	-7.4	/
O=C(NCC1CC1)C1(C(F)(F)F)C/C(=C\Cc2ccccc2)CCCO1 (stereo not drawn)	/	-2%	3	3.5	/
CC(OC(=O)c1cc2sccc2n1C)C(=O)NCc1ccco1 (stereo not drawn)	-4	-9%	-3	0.3	-23

7 consecutive compounds from above, quoted:
SMILES	Arbovirus inh	Mtb H37Rv	Mtb betalactam	RecA splice inh	YopH inh	others
CC(C)CN1CCC(=O)N([C@H](CN=[N+]=[N-])Cc2ccccc2)CC1	/	/	-9	4.2	/
O=C(c1cccc(S(=O)(=O)N2CCOCC2)c1)N1CCN(Cc2ccc3c(c2)OCO3)CC1	3	-11%	-6	-0.7	/
N#CCn1cnc2sc(-c3ccccc3)cc2c1=O	-3	11%	1	7.6	/
Cc1oc2cc3oc(=O)c(CCC(=O)NCCN4CCOCC4)c(C)c3cc2c1C	/	/	-5	-1.6	/
Nc1nc(SCC(=O)NCc2ccccc2Cl)[nH]c(=O)c1NC(=O)c1ccccc1F	2	-1%	3	0.0	-19
CCc1nc(Nc2ccc3c(c2)OCO3)c2oc3ccccc3c2n1	3	/	11	5.0	10
CN(CC(=O)NCc1ccc2c(c1)OCO2)S(=O)(=O)c1ccc(F)cc1	/	/	-5	-3.7	/
